# Bioassay records as filed in PubChem.
# YB-1 expr inh: YB-1 expression inhibition. U2OS, qRT-PCR YB-1 vs CDIP delta delta Cp, 16 h; hits give high values; zero = DMSO, each unit about twofold. delta delta Cp (YB-1 minus CDIP) (test concentration not listed). 0.37% of 30,000 active;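 active = delta delta Cp rounded down to an integer at or above 3, about 3 SD of DMSO wells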;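 note: higher means less YB-1 transcript or more CDIP transcript relative to DMSO; stock transfer was 100 nL into about 100 µL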
# * hit, by the source's call. These rows are one share of the data (hit frequency here may not be typical).
SMILES,YB-1 expr inh
C[C@@H]1CN([C@H](C)CO)C(=O)CCCn2nncc2CO[C@H]1CN(C)S(=O)(=O)c1ccc(-n2cccn2)cc1,0.28
C[C@H](CO)N1C[C@H](C)[C@@H](CN(C)Cc2ccccc2C(=O)O)OCc2cnnn2CCCC1=O,0.058
O=C1O[C@@H](c2ccccc2)[C@@H](c2ccccc2)N2[C@@H](c3ccccc3OCCO)[C@]3(C(=O)Nc4ccccc43)[C@@H](C(=O)O)[C@H]12,-0.033
O=S(=O)(N[C@@H]1CCCN(Cc2ccc(OCCO)cc2)C1)c1cc(Cl)ccc1Cl,-0.37
O=C(N/N=C/c1ccc(S(=O)(=O)O)o1)c1ccccc1O,-0.00092
COC(=O)CCCCCCC(=O)N/N=C/c1ccc(C#N)cc1,0.18
COc1cc2c(cc1OC)CN(C(=O)[C@@H]1[C@H]3C(=O)O[C@H](c4ccccc4)[C@H](c4ccccc4)N3[C@H](c3ccccc3OCCO)[C@@]13C(=O)Nc1ccc(C#CCNC(N)=O)cc13)CC2,0.11
C[C@H](CO)N1C[C@H](C)[C@H](CN(C)C(=O)Nc2cccc3ccccc23)Oc2ncc(-c3cccc(C(F)(F)F)c3)cc2C1=O,0.47
C[C@H]1CN([C@@H](C)CO)C(=O)CCCn2cc(nn2)CO[C@@H]1CN(C)S(=O)(=O)c1ccc(C#N)cc1,0.26
C=CCN1C(=O)[C@@]2(O[C@@H](CCn3cc(CCO)nn3)[C@H]([Si](C)(C)c3ccc(OC)cc3)[C@H]2C)c2cc(N3CCOC3=O)ccc21,0.38
C[C@@H]1CN([C@@H](C)CO)C(=O)CCCn2cc(nn2)CO[C@H]1CN(C)Cc1ccccc1,-0.11
C[C@H](CO)N1C[C@H](C)[C@H](CN(C)C(=O)Nc2ccc3c(c2)OCO3)Oc2ncc(-c3cccc(C(F)(F)F)c3)cc2C1=O,-0.0047
C=CCNC(=O)[C@@H]1[C@H]2C(=O)O[C@H](c3ccccc3)[C@H](c3ccccc3)N2[C@H](c2ccccc2OCCO)[C@@]12C(=O)N(C(=O)OCCOC)c1ccccc12,-0.2
C[C@H](CO)N1C[C@H](C)[C@H](CN(C)Cc2cccc(C(F)(F)F)c2)Oc2ncc(-c3cc4ccccc4o3)cc2C1=O,0.21
CCCC(O)C#Cc1cnc2c(c1)C(=O)N([C@H](C)CO)C[C@H](C)[C@H](CN(C)S(=O)(=O)c1cccc(OC)c1)O2 (stereo not given in full),0.12
COC(=O)C(CC#Cc1ccc2c(c1)[C@]1(C(=O)N2)[C@H](c2ccccc2OCCO)N2[C@H](c3ccccc3)[C@H](c3ccccc3)OC(=O)[C@H]2[C@@H]1C(=O)N1CCc2cc(OC)c(OC)cc2C1)C(=O)OC,-0.24
O=C(NCc1ccccc1)[C@@H]1c2ccccc2C(=O)N(CC23CC4CC(CC(C4)C2)C3)[C@H]1c1ccc(CO)cc1,-0.18
C[C@@H]1CN([C@H](C)CO)C(=O)CCCn2nncc2CO[C@@H]1CN(C)S(=O)(=O)c1cn(C)cn1,-0.086
C[C@H](CO)N1C[C@H](C)[C@H](CN(C)C(=O)NC2CCCCC2)Oc2ncc(-c3cccc(C(F)(F)F)c3)cc2C1=O,-0.31
O=C(N/N=C/c1cc(F)ccc1O)c1ccccn1,-0.19

# A section from further up, as a working copy:
SMILES,YB-1 expr inh
C[C@@H]1CN([C@H](C)CO)C(=O)CCCn2nncc2CO[C@H]1CN(C)S(=O)(=O)c1ccc(-n2cccn2)cc1,0.28
C[C@H](CO)N1C[C@H](C)[C@@H](CN(C)Cc2ccccc2C(=O)O)OCc2cnnn2CCCC1=O,0.058
O=C1O[C@@H](c2ccccc2)[C@@H](c2ccccc2)N2[C@@H](c3ccccc3OCCO)[C@]3(C(=O)Nc4ccccc43)[C@@H](C(=O)O)[C@H]12,-0.033
O=S(=O)(N[C@@H]1CCCN(Cc2ccc(OCCO)cc2)C1)c1cc(Cl)ccc1Cl,-0.37
O=C(N/N=C/c1ccc(S(=O)(=O)O)o1)c1ccccc1O,-0.00092
COC(=O)CCCCCCC(=O)N/N=C/c1ccc(C#N)cc1,0.18
COc1cc2c(cc1OC)CN(C(=O)[C@@H]1[C@H]3C(=O)O[C@H](c4ccccc4)[C@H](c4ccccc4)N3[C@H](c3ccccc3OCCO)[C@@]13C(=O)Nc1ccc(C#CCNC(N)=O)cc13)CC2,0.11
C[C@H](CO)N1C[C@H](C)[C@H](CN(C)C(=O)Nc2cccc3ccccc23)Oc2ncc(-c3cccc(C(F)(F)F)c3)cc2C1=O,0.47
C[C@H]1CN([C@@H](C)CO)C(=O)CCCn2cc(nn2)CO[C@@H]1CN(C)S(=O)(=O)c1ccc(C#N)cc1,0.26
C=CCN1C(=O)[C@@]2(O[C@@H](CCn3cc(CCO)nn3)[C@H]([Si](C)(C)c3ccc(OC)cc3)[C@H]2C)c2cc(N3CCOC3=O)ccc21,0.38
C[C@@H]1CN([C@@H](C)CO)C(=O)CCCn2cc(nn2)CO[C@H]1CN(C)Cc1ccccc1,-0.11

# (listing goes on)
SMILES,YB-1 expr inh
O=C(O)CCCCCCC(=O)N/N=C/c1ccc(-c2cccc(Cl)c2)o1,0.12
C=CCOC(=O)[C@H]1[C@@H]2C(=O)O[C@@H](c3ccccc3)[C@@H](c3ccccc3)N2[C@@H](c2ccc(OCCOC(=O)[C@H]3C[C@H]4C(=O)N[C@@H](CCCCNC(C)=O)C(=O)N4[C@H]3c3cccc(OCCO)c3)cc2)[C@]12C(=O)Nc1ccccc12,-0.21
C[C@@H]1CN([C@H](C)CO)C(=O)CCCn2nncc2CO[C@@H]1CN(C)S(=O)(=O)c1ccc2ccccc2c1,-0.24
Cc1cccc(S(=O)(=O)N(C)C[C@@H]2OCc3cnnn3CCCC(=O)N([C@H](C)CO)C[C@H]2C)c1,-0.21
COc1ccc(CN(C)C[C@@H]2OCc3cn(nn3)CCCC(=O)N([C@@H](C)CO)C[C@H]2C)cc1,0.18
COc1ccc(NC(=O)N(C)C[C@H]2OCc3cn(nn3)CCCC(=O)N([C@H](C)CO)C[C@H]2C)cc1,0.05
O=S(=O)(NC[C@@H]1CCCN(Cc2ccc(OCCO)cc2)C1)c1cccc2cccnc12,0.13
COc1ccc(S(=O)(=O)N(C)C[C@@H]2Oc3ncc(C#Cc4ccccc4)cc3C(=O)N([C@H](C)CO)C[C@@H]2C)cc1,-0.13
O=C1N(CCS(=O)(=O)c2ccccc2)Cc2ccccc2C[C@@]12COC(c1ccc(OCCCO)cc1)=N2,0.17
COCCCNC(=O)[C@]1(CCS(=O)(=O)c2ccccc2)N=C(c2ccc(OCCCO)cc2)O[C@@H]1c1ccccc1,0.26
O=C(NO)c1cccc(C(=O)N/N=C/c2ccc(N3CCCC3)cc2)c1,0.71
O=C(O)CCCCCCC(=O)N/N=C/c1ccncc1Br,0.027
C[C@@H]1CN([C@@H](C)CO)C(=O)CCCn2cc(nn2)CO[C@H]1CN(C)Cc1ccc(Cl)c(Cl)c1,-0.36
O=C1O[C@@H](c2ccccc2)[C@@H](c2ccccc2)N2[C@@H](c3ccc(OCCO)cc3)[C@]3(C(=O)Nc4ccc(C#CC5(O)CCCCCC5)cc43)[C@@H](C(=O)O)[C@H]12,-0.016
O=C(O)CCCCCC(=O)N/N=C/c1cn(S(=O)(=O)c2ccccc2)c2ccccc12,0.34
C[C@@H]1CN([C@H](C)CO)C(=O)CCCn2nncc2CO[C@@H]1CN(C)S(=O)(=O)c1ccc(Oc2ccccc2)cc1,-0.011
COc1ccc(/C=N/NC(=O)CCCCCCC(=O)Nc2ccccc2O)cc1O,-0.042
C=CCN1C(=O)[C@@]2(O[C@@H](CCn3cc(CCO)nn3)[C@H]([Si](C)(C)c3ccc(OC)cc3)[C@H]2C)c2ccccc21,0.099
C[C@@H]1CN([C@@H](C)CO)C(=O)CCCn2nncc2CO[C@H]1CN(C)C(=O)NC1CCCCC1,0.032
C[C@H]1CN([C@@H](C)CO)C(=O)CCCn2nncc2CO[C@H]1CN(C)C(=O)c1ccc2ccn(C)c2c1,-0.089
COc1ccc([C@@H](OC(=O)Nc2ccc(SC)cc2)[C@@H](CCO)OC)cc1O,-0.25
COC(=O)CCCCCCC(=O)N/N=C/c1cccc(Oc2ccccc2)c1,-0.1
COC(=O)C(CC#Cc1ccc2c(c1)[C@]1(C(=O)N2)[C@H](C(=O)N2CCc3cc(OC)c(OC)cc3C2)[C@H]2C(=O)O[C@H](c3ccccc3)[C@H](c3ccccc3)N2[C@@H]1c1ccccc1OCCO)C(=O)OC,0.05
O=C(O)CCCCCCC(=O)N/N=C/c1cc(F)ccc1O,0.17
[N-]=[N+]=Nc1ccccc1C[C@@]1(C(=O)NCc2ccccc2)N=C(c2ccc(OCCCO)cc2)O[C@@H]1c1ccccc1N=[N+]=[N-],0.26
C[C@H](CO)N1C[C@H](C)[C@H](CN(C)Cc2ccccc2)OCc2cnnn2CCCC1=O,-0.04
C[C@H](CO)N1C[C@H](C)[C@H](CN(C)Cc2ccc3c(c2)OCO3)Oc2ncc(-c3cc4ccccc4o3)cc2C1=O,0.23
CC(C)OC(=O)N(C)C[C@H]1OCc2cnnn2CCCC(=O)N([C@@H](C)CO)C[C@H]1C,0.099
COCCCN1C(=O)[C@@]2(Cc3ccccc31)c1ccccc1C(=O)N(C1CCCCC1)[C@H]2c1ccc(CO)cc1,-0.38
O=C1O[C@@H](c2ccccc2)[C@@H](c2ccccc2)N2[C@@H](c3ccc(O)cc3)[C@]3(C(=O)Nc4ccc(C#CC5(O)CCCCCC5)cc43)[C@@H](C(=O)N3CCN(c4ncccn4)CC3)[C@H]12,-0.1
C=CCNC(=O)[C@H]1[C@@H]2C(=O)O[C@@H](c3ccccc3)[C@@H](c3ccccc3)N2[C@@H](c2ccccc2OCCO)[C@]12C(=O)N(C(=O)OCCOC)c1ccc(C#Cc3ccc(OC)cc3)cc12,-0.019
C[C@H](CO)N1C[C@H](C)[C@H](CN(C)C(=O)OCc2ccccc2)OCc2cn(nn2)CCCC1=O,-0.34
COc1ccccc1NC(=O)N(C)C[C@H]1OCc2cnnn2CCCC(=O)N([C@H](C)CO)C[C@@H]1C,-0.048
Cc1ccc(CN(C)C[C@@H]2OCc3cn(nn3)CCCC(=O)N([C@H](C)CO)C[C@H]2C)cc1,-0.063
O=C1O[C@@H](c2ccccc2)[C@@H](c2ccccc2)N2[C@@H](c3ccccc3OCCO)[C@]3(C(=O)Nc4ccc(C#CC5(O)CCCCCC5)cc43)[C@@H](C(=O)Nc3nc4ccccc4s3)[C@H]12,0.29
COc1cc(OC)c(/C=N/NC(=O)c2cccc(C(=O)NO)c2)c(OC)c1,-0.63
C[C@@H]1CN([C@H](C)CO)C(=O)CCCn2cc(nn2)CO[C@H]1CN(C)S(=O)(=O)c1cccc(C#N)c1,-0.095
C[C@H]1CN([C@@H](C)CO)C(=O)CCCn2nncc2CO[C@H]1CN(C)S(=O)(=O)c1ccccc1,-0.24
O=C1O[C@H](c2ccccc2)[C@H](c2ccccc2)N2[C@H]1[C@@H](C(=O)N1CCN(c3ncccn3)CC1)[C@]1(C(=O)Nc3ccc(C#CC4(O)CCCCCC4)cc31)[C@H]2c1ccc(OCCO)cc1,-0.033
COc1ccccc1CN(C)C[C@H]1OCc2cn(nn2)CCCC(=O)N([C@@H](C)CO)C[C@H]1C,-0.11
COc1ccccc1S(=O)(=O)N(C)C[C@@H]1OCc2cnnn2CCCC(=O)N([C@H](C)CO)C[C@H]1C,0.0022
O=C(C1=C[C@@H](c2ccc3c(c2)Cc2ccccc2-3)C[C@@H](OCc2ccc(CO)cc2)O1)N1CCN(Cc2ccc3c(c2)OCO3)CC1,0.16
COCCOC(=O)N1C(=O)[C@@]2(c3cc(C#CC4=CCCCC4)ccc31)[C@H](c1ccc(O)cc1)N1[C@H](c3ccccc3)[C@H](c3ccccc3)OC(=O)[C@H]1[C@@H]2C(=O)NC[C@H](O)c1ccccc1,-0.093
O=C(N/N=C/c1ccc(N(c2ccccc2)c2ccccc2)cc1)c1ccccc1O,0.44
COC(=O)CCCCCCC(=O)N/N=C/c1cccs1,-0.26
COC(=O)C(CC#Cc1ccc2c(c1)[C@]1(C(=O)N2)[C@H](C(N)=O)[C@H]2C(=O)O[C@H](c3ccccc3)[C@H](c3ccccc3)N2[C@@H]1c1ccc(O)cc1)C(=O)OC,-0.18
C[C@@H]1CN([C@H](C)CO)C(=O)CCCn2nncc2CO[C@@H]1CN(C)C(=O)Nc1ccccc1F,-0.073
Cc1noc(C)c1S(=O)(=O)N(C)C[C@H]1OCc2cnnn2CCCC(=O)N([C@H](C)CO)C[C@H]1C,0.17
O=C(CCCCCC(=O)Nc1ccccc1O)N/N=C/c1cc(Br)c(O)c(Br)c1,0.082
COCCOC(=O)N1C(=O)[C@@]2(c3ccccc31)[C@H](C(=O)NC[C@H](O)c1ccccc1)[C@H]1C(=O)O[C@H](c3ccccc3)[C@H](c3ccccc3)N1[C@@H]2c1ccc(O)cc1,0.66
CC(C)N1C(=O)[C@@]2(Cc3ccccc31)c1ccccc1C(=O)N(C1CCCCC1)[C@H]2c1ccc(CO)cc1,-0.58
C[C@@H]1CN([C@@H](C)CO)C(=O)CCCn2nncc2CO[C@H]1CN(C)Cc1cccc(O)c1,-0.3
C[C@@H]1CN([C@H](C)CO)C(=O)CCCn2nncc2CO[C@H]1CN(C)C(=O)Nc1ccnc(N2CCOCC2)c1,0.011
COCCOC(=O)N1C(=O)[C@@]2(c3ccccc31)[C@H](C(=O)N1CCc3cc(OC)c(OC)cc3C1)[C@H]1C(=O)O[C@H](c3ccccc3)[C@H](c3ccccc3)N1[C@@H]2c1ccc(O)cc1,-0.089
C[C@H](CO)N1C[C@H](C)[C@@H](CN(C)C(=O)CCC(F)(F)F)OCc2cn(nn2)CCCC1=O,-0.31
COc1ccc(C#Cc2ccc3c(c2)[C@]2(C(=O)N3)[C@H](c3ccccc3OCCO)N3[C@H](c4ccccc4)[C@H](c4ccccc4)OC(=O)[C@H]3[C@@H]2C(=O)NC[C@H](O)c2ccccc2)cc1,-0.23
CC(C)COC(=O)N(C)C[C@H]1OCc2cnnn2CCCC(=O)N([C@H](C)CO)C[C@H]1C,0.11
C[C@@H]1CN([C@H](C)CO)C(=O)CCCn2cc(nn2)CO[C@H]1CN(C)C(=O)c1ccc2ccn(C)c2c1,-0.29
